From PubChem
Mtb bLac sens = beta-lactam sensitization of Mtb H37Rv, H37Rv; M. tuberculosis H37Rv growth with meropenem, percent inhibition; hits of this screen are not shown here; inhibition, % at 25 µM; 330,000 compounds, 0.27% hits;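 active = about 74% or more and at least 40 points above the plate without the antibiotic, then above 30% in a dose series; inconclusive = first-round hits that could not be retested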;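 also: growth measured after seven days incubation then overnight dye step; 0% = bacteria only wells and 100% = bacteria with antibiotic; twin plates without the antibiotic show which effects depend on it; some results filed as inactive read as strong as hits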
Mtb H37Rv = M. tuberculosis H37Rv growth inhibitors, H37Rv strain (AID 1626) | M. tuberculosis H37Rv growth inhibition; higher % means a stronger effect | one-dose inhibition, % at 10 µM; IC50 in µM for titrated hits | 220,000 compounds, 0.95% hits;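 active = confirmed in a dose series; inconclusive = inhibition above 80% but not taken into the dose series; inactive = below 80% or under 30% at every dose of the series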;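 also: bacteria incubated seven days before Alamar blue readout; 0% = bacteria only wells and 100% = bacteria with antibiotic wells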
RecA intein inh = Mtb RecA intein splicing inhibitors, primary screen, biochemical, fluorescence, HTS; cell-free RecA intein splicing; inhibition, %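 (about 9 µM by stock and volumes)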; 290,000 compounds, 0.75% hits; in the data active = inhibition above about 30%; inconclusive = no clear call, values can overlap the other calls;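 also: 0% = vehicle wells and 100% = reference inhibitor control wells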
Target sequence (P9WHJ3 whole entry, looked up): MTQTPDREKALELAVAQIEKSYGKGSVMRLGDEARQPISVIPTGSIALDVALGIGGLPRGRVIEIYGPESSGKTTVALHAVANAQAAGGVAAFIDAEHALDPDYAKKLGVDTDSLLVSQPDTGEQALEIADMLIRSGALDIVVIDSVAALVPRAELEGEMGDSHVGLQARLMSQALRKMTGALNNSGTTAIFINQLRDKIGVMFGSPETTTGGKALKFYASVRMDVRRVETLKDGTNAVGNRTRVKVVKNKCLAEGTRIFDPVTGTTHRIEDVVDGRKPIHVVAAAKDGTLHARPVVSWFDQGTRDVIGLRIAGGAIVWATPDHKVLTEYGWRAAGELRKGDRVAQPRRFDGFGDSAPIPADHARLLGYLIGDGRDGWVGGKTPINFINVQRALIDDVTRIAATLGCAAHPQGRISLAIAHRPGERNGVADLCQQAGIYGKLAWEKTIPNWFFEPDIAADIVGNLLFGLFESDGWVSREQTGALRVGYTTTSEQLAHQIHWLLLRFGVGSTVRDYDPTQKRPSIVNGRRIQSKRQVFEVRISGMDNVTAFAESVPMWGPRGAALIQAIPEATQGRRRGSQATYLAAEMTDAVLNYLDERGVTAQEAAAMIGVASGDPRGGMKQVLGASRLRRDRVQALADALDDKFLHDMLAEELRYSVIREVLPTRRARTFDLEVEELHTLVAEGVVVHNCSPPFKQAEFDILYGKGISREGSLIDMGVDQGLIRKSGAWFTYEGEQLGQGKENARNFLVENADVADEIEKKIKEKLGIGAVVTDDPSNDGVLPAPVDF
YopH inh = YopH tyrosine phosphatase inhibitors, primary screen, biochemical, fluorescence Ex485/Em525 | YopH tyrosine phosphatase [Yersinia enterocolitica] | inhibition, %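 (about 10 µM by stock and volumes)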 | 140,000 compounds, 0.16% hits | AID 898, 2007;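 active = inhibition of 50% or more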;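 also: controls were vehicle for no effect and minimum signal wells for full effect; inactives centre near -20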
Arbovirus inh = antivirals against arbovirus infection, primary screen, cell-based, full library, 10K replicate subset. arbovirus infection cell-based antiviral screen. inhibition, % at 10 µM. 200,000 compounds, 0.37% hits. AID 1251, 2008;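 active = inhibition from about 30%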;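 also: bluetongue infection of BSR cells; cell survival read as ATP light after 72 h; 0% = infected wells without compound and 100% = uninfected wells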
Arbovirus inh repeat = recorded beside Arbovirus inh, whose call it bears; inhibition, %; measured here: 10K subset replicate screen; many hits read low in the repeat;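 first of two repeat runs on a subset; 0% = infected and 100% = uninfected wells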
The depositor's hits bear a star; ? = inconclusive; nt = no result given. This is a subset; count on the stated rates, not on these rows.

SMILES	Mtb bLac sens	Mtb H37Rv	RecA intein inh	YopH inh	Arbovirus inh	others
O=C(CCNC(=O)Cn1ccc2ccccc2c1=O)NCCc1ccc(Cl)cc1	3	-4%	-1.5	-39	2
COC(=O)c1cc(C(=O)OCC(=O)NC(=O)c2ccccc2)cc([N+](=O)[O-])c1	-4	nt	-1.4	nt	nt
CC(NCC(O)COCc1cccs1)C1CC2CCC1C2 (centres undefined)	6	-4%	0.3	-12	-6
O=C(CSc1nc(-c2ccco2)cc(C(F)(F)F)n1)Nc1ccc(C(=O)N2CCCCC2)cc1	-4	3%	-3.3	-22	-4	Arbovirus inh repeat=-2
CC(C)c1onc(C(=O)NC(C)c2ccccc2)c1[N+](=O)[O-] (centres undefined)	5	10%	-1.9	nt	4
CS(=O)(=O)c1nc(-c2ccccc2)cc(-c2ccccc2)c1C#N	74	6%	15	-6	13
O=C(NNC(=O)C1C2CCCCC21)c1coc(=O)c(Br)c1 (centres undefined)	0	-3%	-1.7	nt	nt
NCCCn1c(C(=O)c2ccc(Cl)cc2)c2ccc([N+](=O)[O-])cc2[n+]1[O-]	82	nt	2.9	nt	nt
Cc1cc(NC(=O)c2ccc3c(c2)C(=O)N(CCC(C)C)C3=O)no1	94	44%	0.0	-12	-5
Nc1ccc(C(=O)Nc2cccc3ncccc23)cc1	-4	nt	-4.4	nt	nt
CCn1ccc(C(=O)N2CCN(c3ncccn3)CC2)n1	-1	nt	-0.3	nt	nt
Cc1cccc(C(=O)NNC(=O)c2c(-c3ccccc3Cl)noc2C)c1O	-5	nt	6.1	nt	nt
O=C(NCC(=O)N(Cc1ccco1)C(C(=O)NC1CCCCC1)c1cccnc1)c1cccs1 (centres undefined)	-8	3%	0.5	-4	9
ONC=Nc1cccc2nonc12	3	-6%	0.5	-11	9
O=C(N/C(=C/c1ccccc1F)C(=O)N1CCCCC1)c1ccccc1	1	nt	-0.9	nt	nt
CCCN(N=Nc1cccc([N+](=O)[O-])c1)c1cccc([N+](=O)[O-])c1	8	1%	-1.1	-25	7
CCCOc1ccc(Cc2nc(N)nc(N)n2)cc1	9	-1%	-0.6	5	3
CCn1c(SCC(=O)Nc2ccc(OC)c(OC)c2)nnc1-c1c[nH]c2ccccc12	4	-4%	-1.6	-40	5
O=S(=O)([N-]c1nc2ccccc2nc1-n1cc[n+](Cc2ccccc2)c1)c1ccccc1	-1	3%	-10	nt	nt
CCn1c(CNC(=O)c2ccc(OC)cc2)nnc1SC	4	1%	0.5	-33	2	Arbovirus inh repeat=1
CSc1cccc(NC(=O)CCC(=O)O)c1	0	-8%	-3.1	-25	5
COc1cc(/C=N/NC(=O)CN2CCCCC2)ccc1OCc1ccccc1	8	-7%	-2.0	-27	7
COc1cc(CNc2ncc(-c3ccc(Cl)cc3)n2C)cc(OC)c1OC	-8	nt	0.8	nt	nt
Cc1ccc2c(C)c(C(=O)Nc3ccc(S(N)(=O)=O)cc3)oc2c1C	3	5%	-3.8	nt	7

Entries shown so far that have a Cl atom:
SMILES	Mtb bLac sens	Mtb H37Rv	RecA intein inh	YopH inh	Arbovirus inh	others
O=C(CCNC(=O)Cn1ccc2ccccc2c1=O)NCCc1ccc(Cl)cc1	3	-4%	-1.5	-39	2
NCCCn1c(C(=O)c2ccc(Cl)cc2)c2ccc([N+](=O)[O-])cc2[n+]1[O-]	82	nt	2.9	nt	nt
Cc1cccc(C(=O)NNC(=O)c2c(-c3ccccc3Cl)noc2C)c1O	-5	nt	6.1	nt	nt
COc1cc(CNc2ncc(-c3ccc(Cl)cc3)n2C)cc(OC)c1OC	-8	nt	0.8	nt	nt

The list continues:
SMILES	Mtb bLac sens	Mtb H37Rv	RecA intein inh	YopH inh	Arbovirus inh	others
C#CCOCCOCCOCCNc1nc(N2CCN(C(=O)C(Cc3ccc(O)cc3)n3cc(C(N)CC(C)C)nn3)CC2)nc(N2CCN(C(=O)C(Cc3ccc(O)cc3)n3cc(C(N)C(C)CC)nn3)CC2)n1 (centres undefined)	39	19%	1.6	nt	-4
O=C(Nc1ccon1)C(Sc1ccccc1)c1ccccc1 (centres undefined)	nt	1%	6.7	-7	-5
CCN(C(=O)COC(=O)c1ccc2[nH]c3c(c2c1)CCCC3)C1CCS(=O)(=O)C1 (centres undefined)	-11	6%	-4.7	nt	13
COCCCNC(=S)NNC(=O)Cn1nc(C)c(Br)c1C	-4	1%	-2.8	-32	7
Brc1ccccc1OCCCCn1cnc2ccccc21	80	2%	11	nt	4
O=C(O)CSc1ncnc2nc[nH]c12	3	4%	-1.9	-8	7
CNC(=O)COC(=O)c1cc(NC(=O)c2ccco2)c(OC)c(OC)c1	41	0%	-0.1	-15	-1
O=C(COC(=O)c1nc(Cl)ccc1Cl)Nc1ncc(Cl)cc1Cl	-2	nt	-1.6	nt	nt
COc1cc(OC)c(NC(=O)C2CCCN2C(=O)OCc2ccccc2)cc1Cl (centres undefined)	-5	nt	-0.8	nt	nt
COc1ccc(OCCCON2C(=O)c3ccccc3C2=O)cc1	-2	10%	-0.1	-27	0
O=C(c1cc(COc2ccc3ncccc3c2)on1)N1CCCC1	-10	nt	11	nt	nt
CSc1ccc(/C=N/N2CCN(C)CC2)cc1	-3	-3%	-2.4	nt	7
CCCN(CCC)CCCNC(=S)Nc1ccc2nc(N3CCN(C)CC3)cc(C)c2c1	4	-1%	-3.5	nt	-22
O=C(c1cccc(C(F)(F)F)c1)C1CCCN(C(=O)C2CCOCC2)C1 (centres undefined)	-18	nt	0.6	nt	nt
COc1ccc(-n2cnc(N)c2C(=O)c2cccc([N+](=O)[O-])c2)cc1	-1	-5%	-0.4	-26	-6
Cc1c(Br)c([N+](=O)[O-])nn1CC(=O)NC1CCCCCC1	-3	nt	1.2	nt	nt
O=C(Nc1cccc2c1CCCC2)c1ccccc1Br	-1	nt	0.7	nt	nt
COc1ccc(C(=O)Nc2ccc(C3=NNC(=O)CC3C)cc2NC(=O)c2ccc(OC)cc2)cc1 (centres undefined)	4	17%	8.3	nt	1
CN(C#N)c1nc(Cl)nc(Nc2cccc(Cl)c2)n1	-1	10%	4.4	1	3
COCn1c(-c2ccc(OC)cc2)nc2ccccc21	3	-2%	1.4	-12	-6
N/C(=N\OC(=O)CCC1CCCCC1)c1cccc([N+](=O)[O-])c1	95	61%	1.1	-34	2
COc1ccc(CNC(=O)Nc2cccs2)cc1OC	-24	-1%	-1.0	-64	3
COCCCNCC(O)COc1ccccc1F (centres undefined)	-2	-2%	8.8	nt	5
COc1ccc(S(=O)(=O)Nc2ccc3c(c2)OCCO3)cc1OC	0	nt	1.0	nt	nt
CN(C)c1ccc(/C=N/NC(=O)c2ccco2)cc1	-3	-5%	-2.7	-24	-12
CN1CCN(NC(=O)c2ccc(Cl)c(S(=O)(=O)Nc3ccc(Cl)cc3)c2)CC1	4	-3%	1.0	nt	nt
O=C(NN1CCOCC1)c1cc(-c2ccccc2)nc2ccccc12	-5	-2%	-1.3	-28	5
CC1(C)COC(/C=C/c2ccc([N+](=O)[O-])cc2)=N1	16	5%	8.9	52*	-2
COc1cccc(CNc2ncnc3cc(OC)c(OC)cc23)c1	-18	-3%	-1.0	-38	2
O=C(N/N=C/c1ccncc1)c1ccc(NC(=O)c2cccc(Cl)c2)cc1	3	3%	-1.8	nt	4
COCCn1c(CN2CCN(c3ccccc3)CC2)nc2c1c(=O)n(C)c(=O)n2C	-1	-3%	-0.2	-11	nt
Cc1c(C(=O)OCC(=O)Nc2ccc(N3CCOCC3)cc2)oc2ccccc12	1	nt	-0.5	nt	nt
Cc1cccc(C)c1NC(=O)NC1(C(=O)NCc2ccncc2)CCCCC1	1	nt	-1.2	nt	nt
CCOc1cc(C2C(C(C)=O)=C(C)Nc3ncnn32)ccc1O (centres undefined)	6	nt	-2.9	nt	nt
COc1ccc(S(=O)(=O)N2CCC(C(=O)NCc3ccncc3)CC2)cc1C	-7	nt	0.2	nt	nt
CC(=O)Nc1ccc(-c2cn3cc(C)ccc3n2)cc1	-1	-4%	0.8	-4	-2
Cc1cccc2[nH]c3c(N4CCN(C(=O)c5ccco5)CC4)ncnc3c12	5	1%	1.8	-26	-5
NNC(=O)Nc1cccc(C(F)(F)F)c1	25	49%	-4.7	nt	4
O=C(Cn1c(=O)n(CC(=O)NCc2ccccc2)c2ccccc21)NCc1ccccc1	-5	-4%	-1.6	-26	-18
O=C(/C=C/c1ccco1)Nc1nnc(-c2ccco2)s1	0	0%	1.2	nt	-15
CCC(C)(C)NC(=O)C(c1ccncc1)N(Cc1ccc(C)cc1)C(=O)c1csnn1 (centres undefined)	-1	-10%	-0.3	6	6
Cc1nc2ccc(NC(=O)CCS(=O)(=O)c3ccccc3)cc2s1	85	74%	-1.0	-1	-2
N#Cc1c(NC(=O)CSc2nnc(-c3ccco3)n2-c2ccccc2)sc2c1CCC2	-1	4%	1.3	-16	3
O=C(CCn1c(=O)c2ccccc2n(CC(=O)NC2CCCC2)c1=O)NCc1ccco1	-5	-8%	nt	-19	4
Cc1nc2ccccc2c(=O)[nH]1	-9	-13%	0.9	-24	7
O=C(N/N=C/c1ccc[nH]1)c1ccc(COc2cccc3cccnc23)cc1	12	-10%	5.3	nt	-19
Cc1nnc2c(Oc3ccccc3)nc3ccccc3n12	1	-6%	-1.7	-10	2
Clc1ccccc1-c1nc2ccccc2c2nncn12	-6	-2%	-0.8	-22	0
COc1cccc(NC(=O)c2cc(CN3C(=O)c4ccccc4C3=O)ccc2OC)c1	-8	4%	3.5	-19	-3
C/C(=N\NC(=S)NCc1ccccc1)c1ccc(Cl)s1	-5	7%	8.3	nt	1
CCN(C(=O)COC(=O)CSc1cc(C)c2ccccc2n1)c1ccccc1	-4	nt	9.4	nt	nt
COc1ccc(C(=O)C(OC(=O)CNC(=O)c2ccco2)c2ccccc2)cc1 (centres undefined)	4	-8%	-2.0	-34	6	Arbovirus inh repeat=3
Cc1c(NC(=O)/C(C#N)=C/c2ccc(-c3ccc(Cl)cc3)o2)c(=O)n(-c2ccccc2)n1C	99	?	6.6	-21	-1
COc1cc(OC)cc(C(=O)NNC(=O)c2cc(=O)[nH]c3ccccc23)c1	-11	nt	-1.0	nt	nt
NC(=O)CC(NC(=O)Cc1cccc2ccccc12)c1ccc(NC2CCC2)c([N+](=O)[O-])c1 (centres undefined)	-12	14%	2.2	nt	nt
COc1ccc(NC(=O)C2OC3OC(C)(C)OC3C3OC(C)(C)OC23)cc1 (centres undefined)	-13	-6%	-1.0	-40	5
CCOC(=O)C(NC(C)=O)(Nc1ccc(S(=O)(=O)Nc2cc(C)nc(C)n2)cc1)C(F)(F)F (centres undefined)	35	-7%	3.5	-35	1
CCOC(=O)Cc1csc(NC(=O)CCCc2ccccc2)n1	8	nt	1.0	nt	nt
NC(=O)c1nsc(C(=O)N(CC(=O)NCc2ccc3c(c2)OCO3)C2CCCCC2)c1N	3	6%	-4.2	-7	1
COC(=O)CSc1nnc(-c2ccco2)n1-c1ccc(C)cc1	-3	-16%	1.0	-34	7

Next results follow:
SMILES	Mtb bLac sens	Mtb H37Rv	RecA intein inh	YopH inh	Arbovirus inh	others
COC(=O)c1ccccc1C(=O)N(c1ccccc1)c1ccccc1	-8	nt	4.0	nt	nt
Cc1cc(C)n2c3c(c(C#N)c2n1)CC(C)(C)OC3	-8	4%	nt	-44	2
O=C(CN1CCN(c2ccccc2)CC1)Nc1nccs1	16	-2%	1.9	9	6
O=C(NCc1ccc(Cl)cc1)c1cc2c(nc3sccn32)s1	-5	10%	-6.1	-43	0
COc1cccc(-c2nnc(NC(=O)C3CCCCC3)o2)c1	58	?	0.9	-22	1	Arbovirus inh repeat=-4
COCCNC(=O)CSc1nnc(-c2ccccc2F)n1Cc1ccccc1	2	-5%	-2.3	nt	11
Nc1ncnc2c1ncn2C1CCC(CO)C(O)C1 (centres undefined)	-2	0%	0.5	-11	-1	Arbovirus inh repeat=-1
O=c1oc2ccccc2c(O)c1Sc1ccc(Cl)cc1	-17	nt	0.8	nt	nt
COc1cccc(C2C(C(=O)/C=C/c3ccco3)=C(O)C(=O)N2CCN2CCOCC2)c1 (centres undefined)	-7	1%	-3.1	nt	-2
Cc1ccc(OCc2nnc(SCC(=O)N3c4ccccc4Sc4ccc(Cl)cc43)o2)cc1	2	16%	-3.3	-4	-12
COc1ccc(NS(=O)(=O)c2ccc(OC)c(OC)c2)cc1OC	-1	-10%	-3.0	-22	3	Arbovirus inh repeat=0
Cc1sc2nc3c(SC(C)C(=O)O)cc(C(=O)c4ccccc4O)cn3c(=O)c2c1C (centres undefined)	-2	5%	1.3	-21	17
